Screening results (PubChem)
PK Bst = alters activity of Bacillus stearothermophilus pyruvate kinase; partly purified Bacillus stearothermophilus pyruvate kinase, luminescence ATP production; ribose 5-phosphate activator present at AC10; AID 361; Potency, µM; hit rate 1.2% among 51,000; in the data active means potency below about 11 µM; inconclusive means mostly about 12 µM to 25 µM; inactive means weaker than that;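 the screen sought inhibitors and activators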;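 note: potency is the fitted concentration of half-maximal effect; scaled between full activation by ribose 5 phosphate and full inhibition by luteolin; about four in five hits inhibit and the cells do not say which; series up to 57 µM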
TsaE inh = YjeE (TsaE) inhibition, E. coli; purified YjeE, fluorescence polarisation of a bound ADP probe; Potency, µM; hit rate 0.05% among 71,000; AID 605; active = well fitted falling curve; inconclusive = weaker or top-dose-only fall, or a rising curve; inactive = flat or poorly fitted curve;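 note: top concentration of the series not given in the record; excess ADP was the control for the full effect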
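Fluorescence polarization of a BODIPY Texas Red–ADP probe (2 uM) bound to purified YjeE (10 uM) was read after 15 min room-temperature incubation with compounds. Loss of polarization marks inhibitors; ADP serves as titrated control.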
* hit, by the source's call; i = inactive; ? = inconclusive; nt = not tested or not shown. An excerpt (hit frequency here may not be typical).

Values run as follows: PK Bst, TsaE inh
O=C(COC(=O)CCNS(=O)(=O)c1ccc2c(c1)OCCO2)NC1CCCc2ccccc21 (stereo not given)
 : >57, i
COc1ccc(-c2nn(C)c(=O)c3ccccc23)cc1NC(=O)Cn1nc(C)c2ccccc2c1=O
 : >57, i
Cc1ccccc1-c1nc(NC2CCNCC2)c2ccccc2n1
 : nt, i
CCOC(=O)c1ccc(Nc2cc(C)nc(N3CCOCC3)n2)cc1
 : 1.5*, i
c1ccc(CCn2nnnc2CN2CCCc3ccccc32)cc1
 : >57, i
CCOc1ccc2[nH]c(=O)c(CN(Cc3nnnn3Cc3ccco3)C3CCCCC3)cc2c1
 : >57, i
CCOC(=O)COc1ccc(S(=O)(=O)N2CCN(C(=O)OCC)CC2)cc1
 : >57, i
CCOc1cc(S(=O)(=O)NCc2cccs2)ccc1Cl
 : >57, i
COC(=O)c1c(C)nn(-c2ccccc2)c1N
 : nt, i
Nc1nnc(-c2cn(-c3ccccc3)nc2-c2ccccc2)o1
 : nt, i
CSc1nc(NC(C)(C)C)nc(N2CCOCC2)n1
 : >57, i
COc1ccc(-c2[nH]nc3c2C(c2ccncc2)C(C#N)=C(N)O3)cc1 (stereo not given)
 : >57, i
Cc1nccn1S(=O)(=O)c1ccc(Br)cc1Br
 : >57, i
CC1=C(C(=O)OCC2CCCO2)C(c2ccc(C)o2)C2=C(CC(c3ccc(F)cc3)CC2=O)N1 (stereo not given)
 : >57, i
CCNc1ncc2nc(-c3ccc(Cl)cc3)c(=O)n(Cc3ccc(F)cc3)c2n1
 : nt, i
COC(=O)C1=C(C)N=C2SC(C)C(=O)N2C1c1cccs1 (stereo not given)
 : >26, nt
O=C(NCCc1c[nH]c2ccccc12)c1ccc(-n2cnnn2)cc1
 : >57, i
CCC(=O)N1c2ccccc2NC2=C(C(=O)CCC2)C1c1cccnc1 (stereo not given)
 : >57, i
O=C(Nc1c(F)cc(F)cc1Br)C1CCCO1 (stereo not given)
 : >57, i
Nc1ccc(O)c(C(=O)O)c1
 : nt, i
O=C(CN1C(=O)COc2ccccc21)N1CCCc2ccccc21
 : >57, i
O=C(c1cc2ncc(Br)cn2n1)N1CCN(C(=O)c2ccco2)CC1
 : >57, i
COc1cc(C2C3C(=O)N(c4ccccc4)C(=O)C3ON2c2ccccc2)ccc1O (stereo not given)
 : >26, nt
CCCC(=O)NCc1nc2ccccc2n1C
 : >57, i
Cn1c(=O)c2c(nc(NCc3cccnc3)n2Cc2cccc(C(F)(F)F)c2)n(C)c1=O
 : >57, i
NS(=O)(=O)c1nc(S(=O)(=O)O)c2[nH]cnc2n1
 : nt, i
COc1ccc(O)c(C(=O)c2cnc3onc(C)c3c2)c1
 : >57, i
Cc1ccccc1OCC(=O)Nc1ccc2c(c1)COC2=O
 : nt, i
CCN(C(=O)CSc1nnnn1-c1cc(C)ccc1OC)C1CCS(=O)(=O)C1 (stereo not given)
 : >57, i
CC(CCc1ccco1)NC(=O)c1cc2c(-c3ccccc3F)nn(C)c2s1 (stereo not given)
 : nt, i
O=C(CSc1nnc(-c2cccc(S(=O)(=O)N3CCCCC3)c2)o1)NCCC1=CCCCC1
 : >57, i
O=C(COC(=O)CCCNC(=O)c1ccc(Cl)cc1)NC1CC1
 : >57, i
COc1ccccc1C(=O)Nn1cnc2ccccc2c1=O
 : >57, i
CCCc1[nH]nc2c1C(c1ccncc1)C(C#N)=C(N)O2 (stereo not given)
 : >57, i
Cc1cc(NC(=O)c2c(-c3ccccc3Cl)noc2C)no1
 : >57, i
CCOc1nc(NCc2ccco2)nc(Nc2ccc(OC)cc2)n1
 : i, i
COc1ccc(N(CC(=O)Nc2nccs2)S(=O)(=O)c2c(C)nn(C)c2C)cc1
 : nt, i
COC(=O)[C@@]1(Cc2ccc(F)cc2)[C@H]2c3cc(C(=O)N(C)C)n(CC4CC4)c3C[C@H]2CN1C(=O)c1ccccc1
 : nt, i
COCCN1C(=O)C(=O)/C(=C(/O)c2cccc(OC)c2)C1c1ccco1 (stereo not given)
 : >57, i
Cc1nnc(SCCn2c(Br)nc3c2c(=O)n(C)c(=O)n3C)s1
 : >57, i
CCN=c1scc(-c2ccc3c(c2)NC(=O)CO3)n1N=C1CCCC1
 : >57, i
CCc1ccc(N(CC(=O)NC2CCCCC2)S(=O)(=O)c2c(C)noc2C)cc1
 : nt, i
CSc1nnc2c(n1)OC(C)=Nc1ccccc1-2
 : nt, i
COc1ccc(OC)c(NC(=O)CSc2nnc(CNC(=O)COc3ccc(Cl)cc3)o2)c1
 : >57, i
O=C1NC(c2ccccc2)(C(F)(F)F)C(=O)N1Cc1cccnc1 (stereo not given)
 : >57, i
COC(=O)c1ccc(NC(=O)CNC(=O)C2CCCCC2)cc1
 : nt, i
CN(Cc1ccccc1)Cc1c(F)cccc1F
 : >57, i
CC1CCc2nc(N)c(C#N)c(-c3cccnc3)c2C1 (stereo not given)
 : nt, i
CS(=O)(=O)N(CC(=O)N1CCOCC1)c1ccc2c3c(cccc13)CC2
 : nt, i
O=C(CN1CCN(c2ccccc2)CC1)Nc1ccc(-n2cnnn2)cc1
 : >57, i
COC(=O)c1sc(NC(C)=O)c(C(=O)OC)c1C
 : >26, nt
O=C(CN1CCCCC1)Nc1cccc(Cl)c1Cl
 : >57, i
O=C(C1=C(O)C(=O)N(CCc2ccccc2)C1c1cccnc1)c1ccco1 (stereo not given)
 : >57, i
O=C1CSC(c2ccccn2)N1c1ccccc1 (stereo not given)
 : >57, i
O=C(CSc1nc(-c2ccccc2)cc(=O)[nH]1)NCc1ccc2c(c1)OCO2
 : >57, i
COc1ccc(N2CC(C(=O)NCCc3ccc(OC)c(OC)c3)CC2=O)cc1 (stereo not given)
 : nt, i
Cc1ccc(OCc2nnc(SCC(=O)NC3CCCCC3)n2C)cc1
 : >57, i
C=CCSc1nc2c(c(=O)[nH]1)C(C(C)C)C(C#N)=C(N)O2 (stereo not given)
 : nt, i
CCCc1nc(NCc2ccco2)c(C#N)c2c1COC(C)(C)C2
 : >57, i
CCCNS(=O)(=O)c1ccc(OCC(=O)NCc2ccco2)cc1
 : >57, i

PK Bst: what is marked active above.
Values run as follows: PK Bst, TsaE inh
CCOC(=O)c1ccc(Nc2cc(C)nc(N3CCOCC3)n2)cc1
 : 1.5*, i

Carrying on.
Compound	PK Bst	TsaE inh
Cc1ccc(S(=O)(=O)/N=C(/Nc2nc(C)cc(C)n2)N2CCOCC2)cc1	nt	i
COc1ccc(-c2ccc(-c3noc(C(C)C)n3)c(OC)n2)cc1	nt	i
O=C(NCCCCNC(=O)c1cccnc1)c1cccnc1	>57	i
CCNc1ncc2nc(-c3cccs3)c(=O)n(-c3ccccc3)c2n1	nt	i
COc1ccccc1NC(=O)CSC1CC(=O)N(c2ccc3c(c2)OCO3)C1=O (stereo not given)	>57	i
CCC(C)(C)n1nnnc1C(C(C)C)N1CCN(C)CC1 (stereo not given)	>57	i
CC1Cn2c(nc3sc4c(c3c2=O)CCC4)N1CCO (stereo not given)	nt	i
CCn1c(SCc2ccc(C(=O)OC)o2)nc2sc3c(c2c1=O)CCCC3	>57	i

Three compounds from above, ordered by number of heavy atoms, lowest first:
Compound	PK Bst	TsaE inh
CC1Cn2c(nc3sc4c(c3c2=O)CCC4)N1CCO (stereo not given)	nt	i
O=C(NCCCCNC(=O)c1cccnc1)c1cccnc1	>57	i
COc1ccc(-c2ccc(-c3noc(C(C)C)n3)c(OC)n2)cc1	nt	i

Next part
Compound	PK Bst	TsaE inh
O=S(=O)(c1cccs1)N1CCc2ccccc2C1	>57	i
COc1ccc(C(CC(=O)O)NC(=O)Cc2ccccc2)cc1 (stereo not given)	>57	i
CCOC(=O)C1CCCN(C(=O)Cn2nc(CC)n3c(cc4sccc43)c2=O)C1 (stereo not given)	nt	i
N#Cc1c(NC(=O)CN2CCCCC2)sc2c1CCC2	>57	i
O=C(CSc1nnc(COc2ccccc2)n1Cc1ccco1)Nc1ccc2c(c1)OCCO2	>57	i
COc1cc(OC)c(S(=O)(=O)NCc2ccco2)cc1S(=O)(=O)NCc1ccco1	>57	i
N#Cc1cc2nc(O)c(O)nc2cc1[N+](=O)[O-]	nt	i
CN(Cc1cnc2nc(N)nc(N)c2n1)c1ccc(C(=O)N[C@@H](CCC(=O)O)C(=O)O)cc1	nt	i
CCCCOC(=O)c1ccc(N2C(=O)CC(N3CCN(C/C=C/c4ccccc4)CC3)C2=O)cc1 (stereo not given)	>57	i
COc1nc(NCc2cccnc2)nc(OC)n1	nt	i
N#Cc1c(N)sc(=S)c2c1CCN(Cc1ccccc1)C2	nt	i
Cc1cc(C)nc(N2C(=O)CC(C(=O)O)NC2=NCCc2c[nH]c3ccccc23)n1 (stereo not given)	>57	i
Fc1ccc(Nc2nc(N3CCOCC3)c3ccccc3n2)cc1	nt	i
COc1nc(Oc2ccc(=O)n(C)n2)nc(N(C)C)n1	nt	i
CC(C)(C)C1CCc2onc(C(=O)NCc3ccc(F)cc3)c2C1 (stereo not given)	>57	i
Cc1ccccc1N=C(N)Nc1ccccc1C	nt	i

Individual results from above:
Value for CCCCOC(=O)c1ccc(N2C(=O)CC(N3CCN(C/C=C/c4ccccc4)CC3)C2=O)cc1 (stereo not given) under PK Bst: >57
Value for CC(C)(C)C1CCc2onc(C(=O)NCc3ccc(F)cc3)c2C1 (stereo not given) under PK Bst: >57
Value for Cc1cc(C)nc(N2C(=O)CC(C(=O)O)NC2=NCCc2c[nH]c3ccccc23)n1 (stereo not given) under PK Bst: >57

Single records, from the list above.
COc1nc(NCc2cccnc2)nc(OC)n1 is listed with PK Bst: nt; TsaE inh: i
COc1nc(Oc2ccc(=O)n(C)n2)nc(N(C)C)n1 is listed with PK Bst: nt; TsaE inh: i
CCCCOC(=O)c1ccc(N2C(=O)CC(N3CCN(C/C=C/c4ccccc4)CC3)C2=O)cc1 (stereo not given) is listed with PK Bst: >57; TsaE inh: i

The listing continues.
Compound	PK Bst	TsaE inh
O=C(Nc1ccc2c(c1)OCO2)NC1CCN(Cc2ccccc2)CC1	>57	i
CC[C@@]1(O)C(=O)OCc2c1cc1n(c2=O)Cc2cc3c(CN(C)C)c(O)ccc3nc2-1	nt	i
CCC(c1nnnn1CC1CCCO1)N(CCN1CCOCC1)Cc1cc2cc(C)ccc2[nH]c1=O (stereo not given)	>57	i
N#Cc1cc2c(nc1SCC(=O)NCc1ccc3c(c1)OCO3)CCCCC2	>57	i
CC1CCc2cccc3c2N1c1cc(C#N)c(C#N)cc1O3 (stereo not given)	i	i
Cc1[nH]c2ccc(S(N)(=O)=O)cc2c1C	nt	i
O=C(Nc1nc(-c2cccs2)cs1)c1cccc(S(=O)(=O)N2CCCCC2)c1	>57	i
O=C(CCC(=O)NC1CCN(Cc2ccccc2)CC1)NCc1ccco1	>57	i
CC(=O)c1cccc(S(=O)(=O)N2CCCC(c3nc(-c4ccc(C)o4)no3)C2)c1 (stereo not given)	>57	i
CCN(CC)c1nc(N2CCOCC2)c(C#N)c2c1CN(C)CC2	>26	nt
Cn1c(SCC(=O)NC2CC2)nnc1C(F)(F)F	>57	i
Cc1nc2sccn2c1-c1nc(-c2cc3ccccc3o2)cs1	?	i
Cc1cccc2cc(C#N)c(N3CCN(C)CC3)nc12	>57	i
COc1cc(/C=C\C(=O)CC(=O)/C=C\c2ccc(O)c(OC)c2)ccc1O	nt	i
O=C(c1ccc(Br)o1)N(c1ccc(Br)cc1)C1C=CS(=O)(=O)C1 (stereo not given)	>57	i
CC(=O)N1CCN(C(=O)Nc2cccc(C(F)(F)F)c2)CC1	>57	i
Cn1c(N2CCN(c3ccccn3)CC2)nc2c1c(=O)n(Cc1ccc(Cl)cc1)c(=O)n2C	>26	nt
Cc1cc(OCC(=O)C(C)(C)C)c2c(C)c(C)c(=O)oc2c1	nt	i
COCCNC(=O)C1(C)C=CC2(CCCCC2)N1C(=O)c1ccccc1 (stereo not given)	nt	i
CCOc1ccc(-c2[nH]ncc2Oc2ccccc2OC)c(O)c1	>57	i
O=C(c1ccco1)N1CCN(c2nc3ccccc3c(=O)n2-c2ccccc2)CC1	>57	i
CCN(CC)C1CCCCC1NS(=O)(=O)c1ccc(Cl)cc1 (stereo not given)	nt	i
Cc1cccc(Cn2c(SCC(=O)Nc3ccccc3)nc3c2c(=O)[nH]c(=O)n3C)c1	nt	i
Cc1ncsc1C(=O)Nc1nc2c(s1)CC(C)CC2 (stereo not given)	10*	i
C=CCn1c(SCC(=O)Nc2cc(C)ccc2OC)nnc1-c1ccco1	>57	i
CCOc1ccc(-n2ccnc2SCC(=O)NCc2ccc3c(c2)OCO3)cc1	>57	i
Nc1nc2c(s1)CC(c1ccccc1)CC2 (stereo not given)	>11	i
O=C(NCc1ccc(F)cc1)c1cc(-c2cccs2)on1	>57	i
COc1cc(CN2CCN(c3cccc(C)c3C)CC2)cc(Br)c1O	nt	i
COC(=O)NC1CSCC1OC(=O)CCN1C(=O)c2ccccc2C1=O (stereo not given)	>57	i
O=S1(=O)C=C(N2CCOCC2)c2ccccc21	nt	i
O=C(Nc1cnc2ccccc2c1)C1COc2ccccc2O1 (stereo not given)	nt	i
Cc1csc(NC(=O)C2CCN(C(=O)CSc3nnc(C)n3Cc3ccccc3)CC2)n1	>57	i
O=C(OCC(=O)N1CCc2ccccc21)c1cccnc1	>57	i
COC(=O)CSC1=C(C#N)C(c2sccc2C)CC(=O)N1 (stereo not given)	>57	i
Cc1cccc(NC(=O)c2cccs2)n1	>57	i
